# TRPV1 potentiator: HTS Assay for Compounds that Act as Potentiators of the Vanilloid Receptor 1; Transient receptor potential cation channel subfamily V member 1 (Homo sapiens), Q8NER1; TRPV1-expressing cells, Fluo-8 calcium influx, capsaicin EC20 potentiation; host cell line not named in the record; control for the full effect not named in the record; potentiation, % at 8.33 µM; 320,000 compounds, 0.02% hits; AID 540277, 2011; active means potentiation above 80%; inconclusive means 30% to 80%; inactive means below 30%; further: 0% is about no effect
#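 TRPV1-expressing cells were cultured overnight at 35.5C and loaded with Fluo-8 calcium dye for 40 to 90 min at room temperature. After a 10 s baseline, compound was added and calcium influx was read kinetically for 3 min (ex 480/em 520 nm).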
# TRPML1 agonist: qHTS for Agonists of the Human Mucolipin Transient Receptor Potential 1 (TRPML1) | 410,000 compounds, 0.12% hits | activation, % (test concentration not listed) | TRPML1-expressing cells, Ca2+ dye fluorescence, FDSS; host cell line not named in the record; reference of the full effect not given here | Mucolipin-1 (Homo sapiens), Q9GZU1; in the data active = activation above about 50%; inconclusive = about 30% to 50%; inactive = below about 30%; further: 0% is about no effect; the text of the record puts the active cut at 80%
# Target sequence (Q9GZU1 whole entry, looked up): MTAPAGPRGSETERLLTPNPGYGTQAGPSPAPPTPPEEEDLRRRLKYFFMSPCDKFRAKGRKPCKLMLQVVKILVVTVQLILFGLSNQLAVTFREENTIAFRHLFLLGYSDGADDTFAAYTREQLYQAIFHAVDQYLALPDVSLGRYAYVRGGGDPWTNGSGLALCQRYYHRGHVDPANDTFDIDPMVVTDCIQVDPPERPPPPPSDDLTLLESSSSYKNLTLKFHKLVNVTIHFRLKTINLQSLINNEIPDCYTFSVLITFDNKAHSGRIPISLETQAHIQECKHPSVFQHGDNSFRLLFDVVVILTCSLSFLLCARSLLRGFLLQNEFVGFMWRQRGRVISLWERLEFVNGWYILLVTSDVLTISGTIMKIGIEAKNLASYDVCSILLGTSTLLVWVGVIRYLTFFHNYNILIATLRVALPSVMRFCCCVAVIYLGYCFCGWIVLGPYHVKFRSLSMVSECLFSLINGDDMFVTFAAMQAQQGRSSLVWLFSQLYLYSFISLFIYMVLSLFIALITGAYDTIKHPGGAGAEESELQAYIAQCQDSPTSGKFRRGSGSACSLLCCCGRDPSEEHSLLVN
#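 Kinetic FDSS Ca2+ read in Tet-induced TRPML1-DL cells (ABD Ca8 dye plus quencher, 45-90 min RT loading): baseline, then compound, then 110 s agonist window; EC80 agonist 54-4 at 4uM final added afterwards for a 110 s antagonist window.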
# TRPML1 inh: qHTS for Inhibitors of the Human Mucolipin Transient Receptor Potential 1 (TRPML1) | Mucolipin-1 (Homo sapiens), Q9GZU1 | TRPML1-inducible cells, Ca2+ dye fluorescence, FDSS; active compounds read low; inhibition of EC80 agonist-evoked calcium signal | activity change, negative = inhibition, % (no concentration beside the values) | 390,000 compounds, 0.02% hits; in the data active means activity change below about -50%; inconclusive means about -30% to -50%; inactive means above about -30%;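 further: stimulus is agonist 54-4 at its EC80 concentration; on the % scale 0 is the no-effect control and ±100 the full control effect; compound concentration not given in the record; the text of the record puts the active cut at -80%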
#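 TRPML1-DL cells, Tet-induced overnight (~16 h, 37 °C) at 1,500 cells/well, were loaded with Ca8 no-wash dye plus quencher for 45-90 min at room temperature. Compounds were pinned during FDSS kinetic reading; agonist 54-4 at EC80 (4 uM final) then added.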
# CtBP-E1A blk: qHTS Assay for Inhibitors of the CtBP/E1A Interaction; AlphaScreen GST-E1A/His-CtBP binding, 1536-well; active compounds read low; control for the full effect not named in the record; activity change, % (no concentration beside the values); 340,000 compounds, 0.49% hits; AID 651724, 2012; in the data active means activity change below about -65%; inconclusive means about -30% to -65%; inactive means above about -30%; further: on the % scale 0 is the no-effect control and ±100 the full control effect
#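 Steps: dispense buffer (Tris pH 8.0, NaCl 300 mM, TCEP 1 mM, BSA, Tween 20); add 5X protein mix (GST-E1A, His-CtBP, 125 nM each); pin 23 nL compound; 2 h at 37 °C, dark; add 5X beads (50 ug/mL); 1 h; read.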
# Six1-Eya2 inh: qHTS Assay for Inhibitors of the Six1/Eya2 Interaction | AlphaScreen GST-Six1/His-Eya2 binding, biochemical; active compounds read low; control for the full effect not named in the record | activity change, % (concentration not given with the values) | 360,000 compounds, 0.56% hits | AID 651725, 2012; in the data active = activity change below about -65%; inconclusive = about -30% to -65%; inactive = above about -30%; further: on the % scale 0 is the no-effect control and ±100 the full control effect
#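 Compounds are tested against tagged Six1 and Eya2 proteins bridged by glutathione donor and nickel acceptor beads; after a one-hour incubation at 37 °C without light, AlphaScreen emission is recorded.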
# D2 potentiator: Beta-Arrestin HTS for Positive Allosteric Modulators of the Human D2 Dopamine Receptor: Potentiators; DiscoveRx D2 beta-arrestin cells, luminescence, 90 min; 100% = 57 uM dopamine signal; potentiation, % (test concentration not listed); 360,000 compounds, 0.23% hits; active = potentiation of 50% or more; inconclusive = 30% to 50%; inactive = 30% or less;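 further: compound concentration not given in the record; tested on top of an EC20 dose of dopamine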
# Target sequence (P14416 whole entry, looked up): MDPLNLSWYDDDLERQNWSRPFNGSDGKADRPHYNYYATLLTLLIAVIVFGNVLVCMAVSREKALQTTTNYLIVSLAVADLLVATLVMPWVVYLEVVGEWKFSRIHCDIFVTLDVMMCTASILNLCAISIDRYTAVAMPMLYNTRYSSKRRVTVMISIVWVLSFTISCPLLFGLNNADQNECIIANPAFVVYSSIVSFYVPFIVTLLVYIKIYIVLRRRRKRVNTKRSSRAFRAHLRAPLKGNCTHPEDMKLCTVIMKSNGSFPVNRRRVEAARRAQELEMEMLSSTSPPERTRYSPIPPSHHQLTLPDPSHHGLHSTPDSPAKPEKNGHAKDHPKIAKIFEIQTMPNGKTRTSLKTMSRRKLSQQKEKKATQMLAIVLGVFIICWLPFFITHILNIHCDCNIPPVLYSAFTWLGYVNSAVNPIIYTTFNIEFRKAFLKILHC
#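 PathHunter D2 cells, attached overnight at 37 deg C, received compound in DMSO plus dopamine at EC20 (50 nM final) for 90 min at 37 deg C. Beta-arrestin recruitment was read as luminescence after 1 h with detection reagent at ambient temperature.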
# * marks the source's active call; other numbers are inactive results; ? = inconclusive; / = no result given; & = joins results of further samples.
SMILES,TRPV1 potentiator,TRPML1 agonist,TRPML1 inh,CtBP-E1A blk,Six1-Eya2 inh,D2 potentiator
O=C(NCCS(=O)(=O)N1CCN(c2ccccc2)CC1)C1CC(=O)N(c2ccc(F)cc2)C1 (stereo not given),2,-0.8&-0.6,-2&-14,5,0,-6
O=C(OCc1ccccn1)c1ccc(COc2ccccc2Cl)o1,-16,2.5,-13,12,2,-20
CCN(CC)C(=O)N1CCc2ccccc21,3,3.1,3,5,5,-1
Clc1ccc(OCc2nn3c(-c4ccco4)nnc3s2)cc1,-6,-0.2,17,-2,-16,-3
CCn1c(/C=C/c2ccc([N+](=O)[O-])o2)nc2ccccc2c1=O,-14,2.3,-7,-4,-2,11
CC(N)c1csc(NC(=O)Nc2cccc(C(F)(F)F)c2)n1 (stereo not given),/,-0.2,2,-27,-21,-18
CSCCC(NS(=O)(=O)c1cccs1)C(=O)NCc1ccc(C)cc1 (stereo not given),0,-0.2,5,7,-3,5
COc1ccc(/C=N/NC(=O)c2ccncc2)cc1COc1ccc(NC(C)=O)cc1,/,-0.1,3,/,16,-13
O=[N+]([O-])c1ccc(NC(=S)NCC(c2cccnc2)N2CCOCC2)cc1 (stereo not given),-2,-0.5,5,1,-4,-3
CCc1nn(C(C)C(=O)NCc2cccc(Cl)c2)c(=O)c2cc3occc3n12 (stereo not given),7,-0.9,3,-3,-3,-11
Cn1nc(C(=O)NCc2cccs2)c2ccccc2c1=O,27,-0.4,-2,/,-12,2
O=C(Cc1ccc(Cl)cc1)Nc1cc(Cl)ccn1,/,1.3,2,13,16,3
COc1cc(OC)cc(C(=O)NNS(=O)(=O)c2ccc(F)cc2)c1,4,0.0,-23,-16,11,-4
Cc1cc(-c2ccc(C(C)C)c(S(=O)(=O)N3CCC(C)CC3)c2)on1,-2,0.3,3,/,3,-9
CCCCCCCn1c(NC(=O)CC)nc2ccccc21,-3,1.6,3,5,-2,-5
CC(C)(C)C1CCN2CCCC(c3ccc([N+](=O)[O-])cc3)(C1)C21OCCO1 (stereo not given),/,27,/,-7,-28,/
O=C(CNC(=O)COc1ccccc1)NCc1cccnc1,-17,-0.6,-10,10,-1,-8
CCN1CCN(C(=O)C2CCN(S(=O)(=O)N3CCC4(CC3)OCCO4)CC2)CC1,0,0.8,17,2,1,-4
CCCCN1C=CC(=C2N=c3cccc([N+](=O)[O-])c3=N2)C=C1,-9,0.5,7,4,-5,-32
CC(C)Cn1c(O)c(N=NC(=O)c2cccc(S(=O)(=O)N3CCCCC3)c2)c2ccccc21,19,-0.1,52,-9,-13,-12
CCOc1c(Cl)cc(C(=O)Nc2ccccc2C(=O)O)cc1Cl,12,0.0,-2,-2,-1,-6
CN(C)S(=O)(=O)c1ccc2nnn(O)c2c1,?,-0.2,-9,0,-10,-27
COc1ccc(CCNC(=O)C(=O)NCC2CCCO2)cc1 (stereo not given),-1,-1.7,10,8,11,-16
CCOC(=O)c1c(C)[nH]c(C(=O)OCC(=O)Nc2ccc(Cl)cn2)c1C,21,0.0,7,-20,6,14
CCOC(=O)N1CCC(N(CCOC)C(=O)Nc2ccc(Cl)c(Cl)c2)CC1,0,1.0,-5,7,-5,-9
Cc1ccn2c(=O)nc(SCC(=O)OCc3ccccc3)nc2c1,5,0.7,-2,-7,-1,6
O=C(CN(CC1CCCO1)C(=O)CNS(=O)(=O)c1ccccc1)NCc1ccco1 (stereo not given),-6,-0.5,-2,-14,-2,-6
CCN(CC(=O)NCc1ccc(F)cc1)C(=O)CN1CCN(c2ccc(OC)cc2)CC1,-13,-1.6,-20,-4,14,-4
CC1CCCCC1NC(=O)C1CCN(S(=O)(=O)N2CCC3(CC2)OCCO3)CC1 (stereo not given),17,0.4,-8,10,1,3
CC1CCCN(C(=O)C2CC(=O)N(c3ccc(Cl)cc3)C2)C1 (stereo not given),-10,0.6,-4,5,1,-2

# Single records, as listed above.
# CSCCC(NS(=O)(=O)c1cccs1)C(=O)NCc1ccc(C)cc1 (stereo not given) reads TRPV1 potentiator: 0; TRPML1 agonist: -0.2; TRPML1 inh: 5; CtBP-E1A blk: 7; Six1-Eya2 inh: -3; D2 potentiator: 5
# Cc1ccn2c(=O)nc(SCC(=O)OCc3ccccc3)nc2c1 reads TRPV1 potentiator: 5; TRPML1 agonist: 0.7; TRPML1 inh: -2; CtBP-E1A blk: -7; Six1-Eya2 inh: -1; D2 potentiator: 6

# Other records follow:
SMILES,TRPV1 potentiator,TRPML1 agonist,TRPML1 inh,CtBP-E1A blk,Six1-Eya2 inh,D2 potentiator
O=S1(=O)CC(N2CCN(c3ccccn3)CC2)CN1C1CCCCC1 (stereo not given),/,-0.4,/,-23,18,-8
CCc1ccc(NC(=O)Cn2nnc(C(=O)NCc3cccs3)c2N)cc1,4,0.5,-8,/,-1,-8
CN(C)CCN(C(=O)c1ccc2ccccc2c1)c1nc2ccc(Br)cc2s1,-24,15,-20,/,21,-4
CCOC(=O)N1CCC(N2CCN(Cc3ccc(C)o3)C(CCO)C2)CC1 (stereo not given),-7,1.4,24,-2,1,-9
Cc1ccc(-c2nnc(SCC(=O)N/N=C/c3c(C)nn(-c4ccccc4)c3C)n2-c2ccccc2)cc1,-3,2.0,-16,3,5,-3
CC1(C)c2[nH]c3ccccc3c2C[C@H]2C(=O)N(CCCO)CC(=O)N21,2,0.4,27,/,-2,-8
CCN(Cc1ccccc1)C(c1ccccn1)c1nnnn1C1CCCCC1 (stereo not given),-15,1.2,-1,-1,8,-7
Cc1cccc(NC(=O)c2ccc(OCc3c(C)noc3C)cc2)n1,-25,-0.5,5,/,9,-4
Cc1nc2c(=O)oc3ccccc3c2n1-c1ccccc1,-6,5.2,4,-6,-9,-14
COc1ccc(C2CCCN2C(=O)Nc2ccccc2)cc1OC (stereo not given),-17,-0.2,-19,5,0,-9
CC(=O)Nc1ccc(NC(=O)C(C)OC(=O)C23CC4CC(CC(Cl)(C4)C2)C3)cc1 (stereo not given),/,1.2,7,6,5,1
CNc1nnc(-c2cc3cc(Cl)ccc3oc2=O)s1,11,3.3,6,2,11,-6
CSc1ccccc1NC(=O)COC(=O)CSc1ccc(C)cc1,9,1.2,1,16,12,-11
O=C(Nc1ccc(Cl)cc1F)C1CC(=O)N(Cc2ccco2)C1 (stereo not given),0,0.4,-7,-13,3,-26
C#CCNC(=O)C1=C[C@H](C2CCCCC2)C[C@H](OCCCCO)O1,-6,-0.4,-13,1,4,-11

# Continued; the last 6 above are carried over.
SMILES,TRPV1 potentiator,TRPML1 agonist,TRPML1 inh,CtBP-E1A blk,Six1-Eya2 inh,D2 potentiator
COc1ccc(C2CCCN2C(=O)Nc2ccccc2)cc1OC (stereo not given),-17,-0.2,-19,5,0,-9
CC(=O)Nc1ccc(NC(=O)C(C)OC(=O)C23CC4CC(CC(Cl)(C4)C2)C3)cc1 (stereo not given),/,1.2,7,6,5,1
CNc1nnc(-c2cc3cc(Cl)ccc3oc2=O)s1,11,3.3,6,2,11,-6
CSc1ccccc1NC(=O)COC(=O)CSc1ccc(C)cc1,9,1.2,1,16,12,-11
O=C(Nc1ccc(Cl)cc1F)C1CC(=O)N(Cc2ccco2)C1 (stereo not given),0,0.4,-7,-13,3,-26
C#CCNC(=O)C1=C[C@H](C2CCCCC2)C[C@H](OCCCCO)O1,-6,-0.4,-13,1,4,-11
Cc1ccc(-n2nnnc2-c2ccco2)cc1,-6,-0.6,-4,4,-5,-10
COc1ccccc1NS(=O)(=O)c1cc(NC(=O)c2ccco2)ccc1N1CCOCC1,-3,-0.7,52,-3,-5,-6
CCCCCCC(=O)N(O)C1CC(=O)N(c2ccc(Cl)cc2)C1=O (stereo not given),2,0.0,6,4,-4,-6
Cc1ccc(C(=O)N/C(=C/c2ccco2)C(=O)N2CCC(C)CC2)cc1,-21,0.2,-12,-6,1,-6
CN(CC(=O)Nc1ccc(F)cc1)C(=O)Cc1ccsc1,3,0.2,11,/,-1,-2
COc1ccc(S(=O)(=O)c2c(O)c3ccc(C(=O)Nc4ccc(F)cc4)cc3[nH]c2=O)cc1,3,-0.2,-10,-24,?,-12
N=c1oc2ccccc2cc1C(=O)NCc1ccccc1,5,-0.5,-8,6,0,-5
COc1cc(OC)c(C2=Nc3ccc(Br)cc3C(c3ccccc3)N2CC(=O)NN)cc1OC (stereo not given),7,1.5,15,?,?,-4
C=CCOc1ccc(/C=C2\C(=N)N3N=C(S(=O)(=O)CC)SC3=NC2=O)cc1OC,20,1.6,0,1,-1,0
COc1cccc(Nc2ccc(-n3ccnc3)nn2)c1,?,0.8,-14,-2,-8,-5
Cc1nc(N2CCOCC2)c2c(C)c(C(=O)Nc3ccc(F)cc3Cl)sc2n1,-6,-0.3,-16,3,19,0
Cc1ccc(C)c(NNC(=O)C(=O)NNc2cc(C)ccc2C)c1,-12,0.5,-17,6,13,1
O=C(NCc1ccccc1)c1cnc2n(c1=O)CCS2,1,-0.5,4,1,-5,6
CCNC(=O)COC(=O)c1cc(-c2ccccc2)nn1-c1ccccc1,-5,1.4,7,1,-5,10
Nn1c(SCC(=O)Nc2nnc(-c3ccccc3)o2)nnc1C1CC1,22,0.3,38,0,-21,1
Cc1ccccc1/C=C/C(=O)N1CCOCC1,-3,0.5,5,-7,6,-2
Cc1cc(OC(=O)c2ccc(F)cc2)c([N+](=O)[O-])c(=O)[nH]1,7,0.2,-7,/,2,-6
O=C(O)c1ccccc1C=NNc1ccccn1,/,0.6,1,-17,1,-16
O=C(C1CCC1)N1CCc2cc(S(=O)(=O)NCc3ccccn3)ccc21,-6,-0.3,3,13,-3,-6
CCOC(=O)N1CCC(n2c(SCC(=O)NCCC3=CCCCC3)nc3ccccc3c2=O)CC1,-14,1.6,19,-2,-4,-8
CC(C)CN1C(=O)C(=O)N(CC(=O)N2c3ccccc3NC(=O)CC2C)C1=O (stereo not given),-1,0.1,-6,6,3,-3
COc1ccc(Cl)cc1-c1nc(SCC(=O)NCCN2C(=O)CSC2=O)n[nH]1,-8,0.5,2,2,-2,-18
COc1ccc(CNC(=O)c2coc(=O)c3ccccc23)c(OC)c1,3,-0.3,20,1,8,-4
CCCNc1ncccc1C(N)=O,-5,-0.2,27,3,4,-19
Cc1csc(NC(=O)CSc2nnc(C)n2Cc2ccco2)n1,-2,-0.3,-18,5,2,7
COc1cccc(/C=N/Nc2ccccc2C(=O)O)c1O,4,0.7,-7,-10,-5,0
O=C(Nc1ccccc1)C1=C[C@@H](c2coc3ccccc3c2=O)C[C@@H](OCc2ccc(CO)cc2)O1,4,1.7,30,-9,0,-5
Cc1ccc(-c2nc(C=Nc3ccccc3)c(O)o2)cc1,-5,4.2,6,/,-4,?
CCOC(=O)/C(=N\Nc1ccccc1Cl)N1CC(C)OC(C)C1 (stereo not given),-10,0.5,19,-1,-13,6
